# UUG fidelity: yeast start codon fidelity modulation; S. cerevisiae UUG-firefly luciferase reporter, luminescence/redox ratio; activity score, % at 18.7 µM; 350,000 tested, 0.13% active;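 active means replicate mean at a twofold rise or more, about +100% in these data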;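 further: firefly luciferase made from a UUG start codon reports start codon fidelity; reporter light over untreated wells divided by growth signal over untreated wells; some hits fall short of that in this replicate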
# The depositor's hits bear a star. The list is partial; count on the stated rates, not on these rows.
UUG fidelity | Structure
-5 | COc1cccc(-c2ccc3n(c2=O)C[C@H]2[C@H](CO)[C@@H](C(=O)NC4CCC4)[C@@H]3N2C)c1
-10 | CCN(C[C@@H]1[C@@H](c2ccccc2)[C@H](CO)N1S(C)(=O)=O)C(=O)C1CC1
-14 | C[C@H]1CN([C@@H](C)CO)C(=O)c2cccc(NC(=O)Nc3ccccc3)c2O[C@H]1CN(C)C(=O)NC1CCCCC1
-12 | CN1c2ccc(-c3ccccc3)cc2[C@H]2[C@H](CCN2S(=O)(=O)c2ccccc2F)[C@@H]1CO
-8 | C[C@@H]1CN([C@@H](C)CO)C(=O)c2cc(NC(=O)Cc3cn(C)c4ccccc34)ccc2O[C@@H]1CN(C)Cc1ccc(C(=O)O)cc1
-8 | O=C(c1ccccn1)N1C[C@H]2[C@@H](c3ccccc31)[C@H](CO)N2C(=O)CC1CC1
11 | CNC[C@@H]1Oc2ccc(NC(=O)Nc3ccc(F)cc3)cc2CC(=O)N([C@@H](C)CO)C[C@@H]1C
-16 | Cc1ccc(S(=O)(=O)N2C[C@@H]3[C@H](c4ccccc42)[C@H](CO)N3Cc2cccnc2)cc1
-19 | O=C(Nc1ccc(-c2ccccc2)cc1)[C@H]1[C@H](CO)[C@H]2Cn3c(cccc3=O)[C@H]2N1CC1CCCCC1
0 | CO[C@@H]1CN(C)C(=O)c2cc(NC(=O)c3cccc(F)c3)ccc2OC[C@@H](C)N(CC2CC2)C[C@@H]1C
12 | COc1ccc(S(=O)(=O)Nc2cccc3c2O[C@H](CN(C)Cc2ccc(C(=O)Nc4ccccc4N)cc2)[C@H](C)CN([C@H](C)CO)C3=O)cc1
-12 | CC(C)NC(=O)Nc1cccc2c1O[C@H](CN(C)CC1CC1)[C@@H](C)CN([C@H](C)CO)C2=O
0 | COCC(=O)N1CCCCN2[C@H](CO)[C@@H](c3ccc(C#Cc4ccccc4)cc3)[C@H]2C1
-48 | OC[C@@H]1[C@@H](c2ccc(-c3cccnc3)cc2)[C@H]2CN(Cc3ccccn3)CCCCN12
1 | COc1ccccc1S(=O)(=O)N1CC[C@@H]2[C@@H](CO)Nc3ccc(-c4ccc(C#N)cc4)cc3[C@@H]21
10 | Cc1noc(C)c1NC(=O)Nc1ccc2c(c1)C(=O)N([C@@H](C)CO)C[C@@H](C)[C@H](CN(C)S(=O)(=O)c1cccs1)O2
-29 | O=C(NC[C@H]1[C@H](c2ccccc2)[C@@H](CO)N1Cc1ccccn1)C1CCC1
5 | O=S(=O)(NC[C@@H]1[C@@H](c2ccccc2)[C@@H](CO)N1CC1CC1)c1ccccc1
-10 | COc1cccc(C#Cc2ccc3c(c2)[C@@H]2[C@@H](CCN2C(C)=O)[C@@H](CO)N3)c1
0 | O=C(C[C@H]1CC[C@@H]2[C@H](COC[C@@H](O)CN2S(=O)(=O)c2ccccc2)O1)Nc1ccc(-c2ccccc2)cc1
-12 | CO[C@@H]1CN(C)C(=O)c2ccc(NC(=O)Nc3ccccc3Cl)cc2OC[C@@H](C)N(Cc2ccccc2C(=O)O)C[C@H]1C
-10 | Cc1noc(C)c1NC(=O)Nc1ccc2c(c1)C(=O)N([C@@H](C)CO)C[C@H](C)[C@H](CN(C)Cc1ccc(-c3ccccc3)cc1)O2
14 | CCNC[C@@H]1[C@H](c2ccc(C3=CCCC3)cc2)[C@H](CO)N1c1nc(C)c(C)s1
4 | CO[C@@H]1CN(C)C(=O)c2cc(NC(=O)Nc3ccccc3F)ccc2OC[C@H](C)N(Cc2ccccc2C(=O)O)C[C@@H]1C
-2 | CO[C@H]1CN(C)C(=O)c2cc(NC(C)=O)ccc2OC[C@@H](C)N(Cc2ccc(F)cc2)C[C@H]1C

# An excerpt from further up:
UUG fidelity | Structure
-5 | COc1cccc(-c2ccc3n(c2=O)C[C@H]2[C@H](CO)[C@@H](C(=O)NC4CCC4)[C@@H]3N2C)c1
-10 | CCN(C[C@@H]1[C@@H](c2ccccc2)[C@H](CO)N1S(C)(=O)=O)C(=O)C1CC1
-14 | C[C@H]1CN([C@@H](C)CO)C(=O)c2cccc(NC(=O)Nc3ccccc3)c2O[C@H]1CN(C)C(=O)NC1CCCCC1
-12 | CN1c2ccc(-c3ccccc3)cc2[C@H]2[C@H](CCN2S(=O)(=O)c2ccccc2F)[C@@H]1CO
-8 | C[C@@H]1CN([C@@H](C)CO)C(=O)c2cc(NC(=O)Cc3cn(C)c4ccccc34)ccc2O[C@@H]1CN(C)Cc1ccc(C(=O)O)cc1
-8 | O=C(c1ccccn1)N1C[C@H]2[C@@H](c3ccccc31)[C@H](CO)N2C(=O)CC1CC1
11 | CNC[C@@H]1Oc2ccc(NC(=O)Nc3ccc(F)cc3)cc2CC(=O)N([C@@H](C)CO)C[C@@H]1C

# Next structures.
UUG fidelity | Structure
-6 | CCC(=O)N1C[C@H](C)[C@H](OC)CN(C)C(=O)c2cc(NS(C)(=O)=O)ccc2OC[C@@H]1C
68 | C/C=C/c1ccc([C@@H]2[C@H](CO)N(C(=O)C3CC3)[C@H]2CN(CC)C(C)=O)cc1
-13 | CCNC(=O)[C@@H]1[C@@H](CO)[C@@H]2Cn3c(ccc(-c4ccccc4)c3=O)[C@@H]2N1Cc1cccnc1
7 | CCC(=O)N1C[C@H](C)[C@H](OC)CN(C)C(=O)c2cc(NC(=O)COC)ccc2OC[C@H]1C
6 | CCCNC(=O)Nc1ccc2c(c1)OC[C@@H](C)N(C(=O)C1CCC1)C[C@@H](C)[C@H](OC)CN(C)C2=O
23 | C/C=C/c1ccc([C@H]2[C@@H](CO)N(C(C)=O)[C@@H]2CNC(=O)CC2CC2)cc1
2 | C[C@H]1CN([C@@H](C)CO)C(=O)CCCn2nncc2CO[C@@H]1CN(C)C(=O)CCCN(C)C
-8 | CO[C@H]1CN(C)C(=O)c2ccc(NS(=O)(=O)c3cn(C)cn3)cc2OC[C@H](C)N(Cc2cccc(F)c2)C[C@H]1C
-15 | COc1cccc(-c2ccc3c(c2)[C@H]2[C@H](CCN2S(=O)(=O)c2ccccc2C)[C@H](CO)N3C)c1
-8 | CCCNC(=O)N1C[C@H](C)[C@H](OC)CN(C)C(=O)c2cc(NC(C)=O)ccc2OC[C@H]1C
-13 | CN1CCCCN2[C@@H](CO)[C@@H](c3ccc(-c4ccc(F)cc4)cc3)[C@@H]2C1
-33 | Cc1noc(C)c1NC(=O)Nc1ccc2c(c1)C(=O)N([C@@H](C)CO)C[C@@H](C)[C@@H](CN(C)C(=O)Nc1cccc3ccccc13)O2
22 | COc1ccc(S(=O)(=O)N2C[C@H](O)COC[C@H]3O[C@H](CC(=O)NCCCN(C)C)CC[C@@H]32)cc1
-8 | C[C@@H]1CN([C@H](C)CO)C(=O)c2cccc(NC(=O)Nc3ccc(C(F)(F)F)cc3)c2O[C@H]1CN(C)C
5 | C/C=C/c1ccc([C@H]2[C@@H](CO)N(C(=O)CC)[C@@H]2CNC(=O)c2ccncc2)cc1
-6 | CN1C(=O)c2cc(NC(=O)c3cccc(F)c3)ccc2OC[C@H]2O[C@@H](CC(=O)NCc3ccccc3Cl)CC[C@H]21
6 | C[C@H](CO)N1C[C@H](C)[C@@H](CN(C)Cc2ccc3c(c2)OCO3)Oc2ccc(NS(=O)(=O)c3ccc(F)cc3)cc2C1=O
-10 | C[C@@H]1CN([C@H](C)CO)C(=O)c2cc(NC(=O)CCCCCC(=O)Nc3ccccc3N)ccc2O[C@H]1CN(C)S(=O)(=O)c1ccc(Cl)cc1
5 | Cc1ccccc1-c1ccc([C@H]2[C@@H](CO)N3CCCCN(S(=O)(=O)Cc4ccccc4)C[C@H]23)cc1
0 | COCC(=O)N1[C@H](CO)[C@H]2c3ccccc3N(C(=O)Nc3cc(F)ccc3F)C[C@H]21
4 | O=C(c1ccc2c(c1)OCO2)N1CC[C@@H]2[C@H]1c1cc(-c3ccccc3)ccc1N[C@@H]2CO
7 | C[C@@H](O)C#Cc1ccc([C@@H]2[C@@H](CO)N3CCCCN(C(=O)c4cccc(F)c4)C[C@H]23)cc1
-5 | O=C(C[C@@H]1CC[C@@H]2[C@H](COC[C@H](O)CN2Cc2ccccc2F)O1)NCc1ccccc1F
17 | O=C(Cc1ccccc1)N1C[C@H]2[C@@H](c3ccccc31)[C@H](CO)N2C(=O)C1CCCCC1
4 | O=S(=O)(c1ccc(F)cc1)N1CCCCN2[C@H](CO)[C@@H](c3ccc(-c4cncnc4)cc3)[C@@H]2C1
12 | CC(C)NC(=O)N(C)C[C@@H]1Oc2ccc(NC(=O)Nc3ccc(F)cc3)cc2C(=O)N([C@H](C)CO)C[C@@H]1C
15 | Cc1noc(C)c1NC(=O)Nc1cccc2c1O[C@H](CN(C)Cc1ccc(-c3ccccc3)cc1)[C@@H](C)CN([C@H](C)CO)C2=O
8 | C[C@H]1CN([C@@H](C)CO)C(=O)c2cc(NC(=O)Nc3ccc(F)cc3)ccc2O[C@H]1CN(C)Cc1ccc2c(c1)OCO2
5 | Cc1ccc(S(=O)(=O)N2C[C@H](O)COC[C@H]3O[C@@H](CC(=O)N[C@@H]4CCN(Cc5ccccc5)C4)CC[C@@H]32)cc1
-12 | CCCC(=O)Nc1ccc2c(c1)OC[C@H](C)N(Cc1cncnc1)C[C@@H](C)[C@@H](OC)CN(C)C2=O
-6 | COCC(=O)Nc1ccc2c(c1)C(=O)N(C)C[C@@H](OC)[C@@H](C)CN(Cc1ccccc1OC)[C@@H](C)CO2
27 | O=C(Nc1cccc(F)c1)N1C[C@@H]2[C@H](c3ccccc31)[C@@H](CO)N2C(=O)c1ccccc1F
-8 | CN1c2ccc(-c3cccc(F)c3)cc2[C@@H]2[C@@H](CCN2C(=O)Cc2ccccc2)[C@@H]1CO
22 | CO[C@H]1CN(C)C(=O)c2cc(NC(=O)c3cc(C)on3)ccc2OC[C@H](C)N(C(C)=O)C[C@@H]1C
-11 | CN(C)C(=O)c1cccc(-c2ccc([C@H]3[C@@H](CO)N4CCCCN(C(=O)C5CCC5)C[C@@H]34)cc2)c1
-8 | C[C@H](CO)N1C[C@H](C)[C@@H](CN(C)CC2CC2)Oc2c(NC(=O)Nc3ccccc3)cccc2C1=O
2 | O=C(C[C@@H]1CC[C@H]2[C@@H](COC[C@@H](O)CN2Cc2cccc(C(F)(F)F)c2)O1)NCc1ccc(F)cc1
2 | CC(C)NC(=O)N(C)C[C@@H]1Oc2ccc(NC(=O)CCC(F)(F)F)cc2CC(=O)N([C@H](C)CO)C[C@H]1C
2 | N#Cc1cccc(-c2ccc3c(c2)[C@@H]2[C@@H](CCN2C(=O)C2CCCCC2)[C@H](CO)N3)c1
-9 | COc1ccc(S(=O)(=O)N2C[C@H](O)COC[C@@H]3O[C@@H](CC(=O)NCCCN4CCOCC4)CC[C@H]32)cc1
-7 | O=C(c1ccc2c(c1)OCO2)N1CC[C@@H]2[C@H](CO)Nc3ccc(C#Cc4ccccc4)cc3[C@@H]21
0 | C[C@H](CO)N1C[C@H](C)[C@H](CN(C)C(=O)NC2CCCCC2)Oc2c(NS(C)(=O)=O)cccc2C1=O
-5 | Cn1cnc(S(=O)(=O)N2CCCCN3[C@@H](CO)[C@H](c4ccc(C5=CCCC5)cc4)[C@@H]3C2)c1
4 | COc1ccc(NC(=O)N2CCCCN3[C@H](C2)[C@H](c2ccc(-c4ccccc4F)cc2)[C@@H]3CO)cc1
11 | C[C@H]1CN([C@@H](C)CO)C(=O)c2cc(NC(=O)NC3CCCCC3)ccc2O[C@H]1CN(C)Cc1ccc(C(=O)Nc2ccccc2N)cc1
14 | COc1ccc(CN(C)C[C@H]2Oc3ccc(NC(=O)Nc4ccc(OC)cc4)cc3CC(=O)N([C@H](C)CO)C[C@@H]2C)cc1
0 | OC[C@H]1[C@H](c2ccc(-c3ccccc3F)cc2)[C@H]2CN(Cc3ccncc3)CCCCN21
-1 | O=C(c1cccc(F)c1)N1CC[C@@H]2[C@H]1c1cc(-c3ccc(F)cc3)ccc1N[C@@H]2CO
17 | C[C@H]1CN([C@@H](C)CO)S(=O)(=O)c2ccc(C#CC3CCCC3)cc2O[C@@H]1CN(C)C
7 | CCCN1[C@@H]2c3ccc(-c4ccccc4)c(=O)n3C[C@H]1[C@H](CO)[C@H]2C(=O)NCCCN1CCOCC1

# (further entries)
UUG fidelity | Structure
1 | C[C@@H]1CN([C@@H](C)CO)C(=O)c2cccc(NS(=O)(=O)c3cn(C)cn3)c2O[C@H]1CN(C)C(=O)Nc1ccc(C(F)(F)F)cc1
8 | CC(C)NC(=O)N(C)C[C@@H]1Oc2ccc(NC(=O)Cc3ccccc3)cc2C(=O)N([C@H](C)CO)C[C@@H]1C
-14 | CN1c2ccc(C#Cc3cccnc3)cc2[C@H]2[C@H](CCN2S(=O)(=O)c2ccc(F)cc2)[C@H]1CO
-2 | O=C(C[C@@H]1CC[C@H]2[C@@H](COC[C@H](O)CN2C(=O)C2CCCC2)O1)NCc1ccncc1
9 | CCCC#Cc1ccc([C@@H]2[C@H](CO)N3CCCCN(S(C)(=O)=O)C[C@@H]23)cc1
8 | CO[C@@H]1CN(C)C(=O)c2ccc(NS(=O)(=O)c3ccccc3)cc2OC[C@@H](C)N(C(=O)NC(C)C)C[C@@H]1C
8 | COc1ccc(S(=O)(=O)Nc2ccc3c(c2)C(=O)N([C@H](C)CO)C[C@H](C)[C@H](CN(C)S(=O)(=O)c2c(C)noc2C)O3)cc1
-18 | C[C@H](CO)N1C[C@H](C)[C@H](CN(C)S(=O)(=O)c2cn(C)cn2)Oc2ccc(NC(=O)c3ccncc3)cc2C1=O

# Arranged by molecular weight (lowest first): part of the list above.
UUG fidelity | Structure
8 | CC(C)NC(=O)N(C)C[C@@H]1Oc2ccc(NC(=O)Cc3ccccc3)cc2C(=O)N([C@H](C)CO)C[C@@H]1C
8 | CO[C@@H]1CN(C)C(=O)c2ccc(NS(=O)(=O)c3ccccc3)cc2OC[C@@H](C)N(C(=O)NC(C)C)C[C@@H]1C
1 | C[C@@H]1CN([C@@H](C)CO)C(=O)c2cccc(NS(=O)(=O)c3cn(C)cn3)c2O[C@H]1CN(C)C(=O)Nc1ccc(C(F)(F)F)cc1

# Screens: PubChem, Broad Institute
